GLA inh pH 4.5: qHTS Assay for Inhibitors of Human alpha-Galactosidase at pH 4.5; 230,000 tested, under 10 active; activity change, negative = inhibition, % at 105 µM; AID 1467, 2008; purified enzyme, 4-MU-alpha-Gal fluorescence, pH 4.5; Alpha-galactosidase A (Homo sapiens), P06280; inconclusive = small, poorly fitted or top-dose-only inhibition, or a rising curve; inactive = flat fitted curve, though single readings scatter; no compound was filed as active;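 note: 0% = full activity with enzyme and -100% = basal without enzyme; dose as in the result columns while the protocol names 77 µM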
Rango release inh: qHTS Assay for Inhibitors of RanGTP induced Rango (Ran-regulated importin-beta cargo) - Importin beta complex dissociation. Snurportin-1 (Homo sapiens) + GTP-binding nuclear protein Ran (Homo sapiens) + Importin …. Biochemical FRET Rango-importin beta, RanGTP-induced dissociation. Potency, µM (top dose mostly 46.1 µM), for inactives: at the top dose activity change, negative = inhibition. 0.071% of 340,000 active. AID 540253, 2011; active means falling FRET ratio curve, often poorly fitted, with flat reads before Ran was added; inconclusive means other falling curves, or compound fluorescence or quenching; inactive means flat or rising ratio curve;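 note: potency is the fitted concentration of half-maximal effect; % of control where 0% means no effect; nearly all actives have a fitted effect of over 45% in size; -100% = wells without RanGTP and RCC1; the record marks most hits as doubtful in a second field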
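Compounds sat 5 min at room temperature with 0.1 uM Rango biosensor plus 0.25 uM importin beta, then FRET pre-read. RanGTP-RCC1 (0.6 uM Ran, 2mM GTP, 0.2 uM RCC1) added for 45 min, and the CFP/YFP post-read measured blocked complex dissociation.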
miR-21 reporter: qHTS Assay for Modulators of miRNAs and/orActivators of miR-21; HeLa miR-21 FLuc reporter, luciferase, 48 h; Potency, µM (highest dose often 38.3 µM), without a hit: at the highest dose reporter change, positive = more light; 340,000 tested, under 10 active; active = well fitted rising curve with a large enough effect; inconclusive = small, poorly fitted or top-dose-only effect; inactive = no such curve, though single readings can be large or run the other way;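 note: % of control where 0% means no effect; miR-21 action dims this reporter so a rising signal means less miR-21 action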
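HeLa miR-21-FLuc reporter line, endogenous miR-21; 2000 cells/well in DMEM/10% FBS; compound titration up to ~40uM final, 48 h, 37 degree Celsius; luciferase detection reagent, 15 min lysis, CCD luminescence.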
Rango-impB inh: qHTS Assay for Inhibitors of Rango (Ran-regulated importin-beta cargo) - Importin beta complex formation | Rango CFP/YFP FRET sensor + importin beta, 45 min | 0.031% of 340,000 active | Potency, µM (highest dose often 92.2 µM), inactives show at the highest dose inhibition of complex formation | AID 540263, 2011 | Importin subunit beta-1 (Homo sapiens), Q14974; active = rising FRET ratio curve, often small or poorly fitted; inconclusive = mostly compound fluorescence or quenching in the first reads; inactive = flat curves in all reads;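 note: potency is the fitted concentration of half-maximal effect; 0% = DMSO wells and 100% = buffer wells lacking importin beta; nearly all actives have a fitted effect of over 15% in size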
Target sequence (Q14974 whole entry, looked up): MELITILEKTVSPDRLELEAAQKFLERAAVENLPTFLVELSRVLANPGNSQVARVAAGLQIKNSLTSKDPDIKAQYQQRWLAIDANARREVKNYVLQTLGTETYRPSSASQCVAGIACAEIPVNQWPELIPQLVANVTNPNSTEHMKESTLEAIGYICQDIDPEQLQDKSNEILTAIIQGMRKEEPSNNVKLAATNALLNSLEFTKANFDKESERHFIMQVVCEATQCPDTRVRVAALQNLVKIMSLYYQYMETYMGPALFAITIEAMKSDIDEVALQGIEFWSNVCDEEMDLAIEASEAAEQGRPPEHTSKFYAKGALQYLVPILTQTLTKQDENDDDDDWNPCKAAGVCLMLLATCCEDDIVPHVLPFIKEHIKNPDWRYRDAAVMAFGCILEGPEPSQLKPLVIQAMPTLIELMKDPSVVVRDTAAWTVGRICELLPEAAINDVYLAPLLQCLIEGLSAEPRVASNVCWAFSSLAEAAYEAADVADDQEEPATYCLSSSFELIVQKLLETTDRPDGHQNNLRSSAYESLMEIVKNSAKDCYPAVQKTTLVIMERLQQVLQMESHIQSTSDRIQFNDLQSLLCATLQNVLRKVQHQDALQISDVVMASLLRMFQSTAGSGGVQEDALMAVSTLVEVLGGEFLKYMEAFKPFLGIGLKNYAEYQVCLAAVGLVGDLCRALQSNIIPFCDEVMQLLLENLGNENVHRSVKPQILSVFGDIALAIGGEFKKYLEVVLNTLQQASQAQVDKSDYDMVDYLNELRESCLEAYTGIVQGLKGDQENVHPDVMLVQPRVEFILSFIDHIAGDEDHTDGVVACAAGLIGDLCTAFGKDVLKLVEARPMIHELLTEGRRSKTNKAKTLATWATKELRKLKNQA
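Inhibition scored from the CFP 486 nm/YFP 530 nm FRET ratio 45 min after adding 0.125 microM importin beta to 50 nM Rango biosensor preincubated 5 min with compound (room temperature, PBS with DTT, Tween-20, BSA). No-importin wells as positive control.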
Numbers without * were called inactive; ? = inconclusive; . = no result given; & = joins results of further samples; [ ] = another dose, or the depositor's remark.

Short forms: A = GLA inh pH 4.5; B = Rango release inh; C = miR-21 reporter; D = Rango-impB inh
COc1ccc(NC(=O)[C@@H](NC(=O)c2ccccc2)C(C)C)cc1S(=O)(=O)N1CCCCC1
  A: -13.3 | B: -0.5% | C: -9.8% | D: -3.1%

Cc1c(C(=O)NCCc2ccc(Cl)cc2)sc2nc3n(c(=O)c12)CCC3
  A: . | B: -6.8% | C: -20.6% | D: -0.1%

O=C(CN1C(=O)/C(=C\c2cccc(Cl)c2)Oc2ccccc21)N1CCN(c2ccccn2)CC1
  A: ? | B: . | C: -6.2% | D: .

O=S(=O)(NCCOCCNS(=O)(=O)c1ccccc1)c1ccccc1
  A: -28.3 | B: -3.1% | C: -1.6% | D: -0.8%

C=C(C)c1cccc(C(C)(C)NC(=O)N2CCN(C)CC2)c1
  A: 1.4 | B: -1.1% | C: -4.1% | D: 0.4%

O=C(O)c1ccc(N(Cc2ccccc2)S(=O)(=O)c2ccccc2)cc1
  A: . | B: 13.7%&-13.6% | C: 0.6%&0.8% | D: ?

CC(C)(C)NC(=O)C(c1ccc(-c2ccccc2)cc1)N(C[C@H]1CC[C@@H]([C@@H]2CC[C@H](CO)O2)O1)C(=O)c1ccccc1F (some centres not stated)
  A: . | B: 4.2% | C: . | D: ?

CN(Cc1cnn(C)c1)C(=O)C1CCC(=O)N(Cc2cccc(F)c2)C1 (configuration not stated)
  A: . | B: 0.3% | C: -0.9% | D: 0.0%

CC(=O)Nc1ccc(S(=O)(=O)Nc2ccccc2C(=O)N2CCCC2)cc1
  A: . | B: -14.4% | C: 0.4% | D: 2.4%

O=C(CSc1ccc2ccccc2c1)NC1CCCc2ccccc21 (configuration not stated)
  A: 1.7 | B: 15.1% | C: -5.2% | D: -0.6%

CCC(=O)c1ccc(OCC(=O)OCC(=O)NCC2CCCO2)cc1 (configuration not stated)
  A: . | B: 0.5% | C: 1.7% | D: 0.4%

Cn1c(=O)c2c(SCc3cccnc3)nc(CC(C)(C)C)nc2n(C)c1=O
  A: -2.8 | B: -11.8% | C: -7.0% | D: -0.9%

CC(=O)Nc1ccc(S(=O)(=O)NC2C3(C)CCC(C3)C2(C)C)cc1 (configuration not stated)
  A: . | B: 3.5% | C: 1.7% | D: -0.6%

CC(=O)CCc1c(C)c2cccc(C)c2[nH]c1=O
  A: . | B: 11.6% | C: -13.0% | D: 1.6%

CCC(=O)Nc1ccc(C(=O)CSc2nnc(-c3ccccc3F)n2C2CC2)cc1
  A: 0.1 | B: 20.8% | C: -13.3% | D: -1.5%

O=C(NCc1ccco1)c1ccc(Br)c(S(=O)(=O)N2CCCCC2)c1
  A: -2.4 | B: 10.2% | C: 14.1% | D: -0.3%

NC(=O)C1(N2CCCCC2)CCN(C(=S)NCCc2ccccc2)CC1
  A: -2.6 | B: 1.3% | C: 3.4% | D: -0.4%

COc1ccccc1/C=C/C(=O)/C=C/c1ccccc1O
  A: 1.4 | B: 14.6% | C: ? | D: ?

Cc1nccn1CCCNC(=O)CC1C(=O)NCCN1Cc1ccc(Cl)c(F)c1 (configuration not stated)
  A: -1.0 | B: -15.3% | C: -1.0% | D: 1.3%

COCc1nnc(NC(=O)c2cc3ccccc3o2)s1
  A: . | B: 7.3% | C: -52.3% | D: -2.0%

COc1ccc(CCNC(=O)c2ccc(NC3=NC4CS(=O)(=O)CC4S3)cc2)cc1OC (configuration not stated)
  A: . | B: 11.4% | C: -0.1% | D: 2.7%

Cc1nn(C)c(Oc2ccccc2)c1CCNC(=O)C(C)(C)C
  A: 6.4 | B: -5.1% | C: -0.9% | D: 2.1%

COc1cccc(N(CC(=O)NC2CCCCC2)C(=O)CCCC(=O)Nc2ccccn2)c1
  A: . | B: -5.9% | C: 3.7% | D: 3.5%

Cc1cc(C)n2cc(CSc3nnc(N)s3)nc2n1
  A: 11.0 | B: -13.3% | C: 0.1% | D: 2.4%

CCN1/C(=C\C=C2\C(=O)N(c3ccccc3)C(=S)N2C)Sc2ccccc21
  A: 9.0 | B: 8.3% | C: -5.7% | D: 2.0%

Cc1ccccc1NC(=O)C(C#N)Cc1cccnc1 (configuration not stated)
  A: -11.5 | B: -4.1% | C: -1.0% | D: 2.5%

O=C(Nc1ccc(Cl)cc1C(=O)Nc1ccc(Br)cn1)c1ccco1
  A: -7.3 | B: 0.3% | C: 18.6% | D: ?

Cc1ccc(C)c(NC(=O)CCCCCCCCCCC2COCCO2)c1 (configuration not stated)
  A: 2.2 | B: 7.5% | C: 0.5% | D: -4.1%

CCOC(=O)CN/C=C(\C#N)c1ccccc1
  A: 0.1 | B: -10.0% | C: -13.9% | D: -2.2%

COc1ccccc1C(=O)Nc1nc2ccccc2[nH]1
  A: . | B: -0.6% | C: ? | D: -1.4%

O=C(NCc1cccs1)c1cc(S(=O)(=O)N2CCOCC2)c(Cl)cc1Cl
  A: . | B: 17.7% | C: 9.1% | D: 2.9%

Cc1nc(NC(=O)CCc2ccccc2)ccc1Br
  A: 5.0 | B: -10.3% | C: -38.5% | D: ?

Cc1sc(-c2ccccn2)nc1OC(=O)c1ccc(F)cc1F
  A: -2.1 | B: ? | C: 5.5% | D: ?

CC(=O)NC(CC(=O)N(Cc1ccccc1)c1ccc(C)cc1)c1ccccc1 (configuration not stated)
  A: . | B: 13.2% | C: 4.2% | D: -4.3%

CCN1CCN(CCOc2ccc(Br)cc2C)CC1
  A: -2.0 | B: -1.5% | C: -10.2% | D: 1.3%

O=C(NCc1ccccn1)c1ccc(Cl)c(S(=O)(=O)N2CCCCC2)c1
  A: 1.6 | B: -11.0% | C: 4.3% | D: -1.4%

COc1cc(C(=O)O/N=C(\N)c2cccc([N+](=O)[O-])c2)cc(OC)c1OC
  A: 3.2 | B: 0.1% | C: -2.4% | D: 3.2%

O=c1ccc2c([nH]1)CCCCCCCCCC2
  A: . | B: 3.1% | C: 0.0% | D: 0.5%

O=[N+]([O-])c1cc(-c2ncccn2)c([N+](=O)[O-])s1
  A: -21.6 | B: -5.3% | C: ? | D: -0.1%

O=C(CN1CCN(Cc2ccccc2)CC1)c1ccccc1
  A: -7.0 | B: 1.6% | C: -5.8% | D: -1.0%

COC(=O)c1scc(C)c1N1C(=O)c2ccccc2C1=O
  A: 4.6 | B: 9.2% | C: -0.9% | D: -0.1%

COc1ccc(OC)c(-c2nc(CN(C)C(C)c3ccncn3)c(C)o2)c1 (configuration not stated)
  A: -3.2 | B: -4.1% | C: -16.7% | D: -1.1%

c1ccc(CCCN2CCN(c3ccccc3)CC2)cc1
  A: . | B: -10.5% | C: -7.2% | D: 2.5%

COC(=O)Cn1c(C(=O)N2CCCC2)cc2c1C[C@H]1CN(C(=O)c3ccccc3)[C@@](Cc3ccc(F)cc3)(C(=O)OC)[C@@H]21
  A: 2.2&-6.4 | B: 23.1% | C: -6.4% | D: 2.7%

CCO[C@H]1OC(C(=O)Nc2ccccc2)=C[C@@H](c2csc3ccccc23)[C@@H]1CCCO
  A: -4.4 | B: -0.1% | C: 7.0% | D: 2.3%

COc1ccc(Cl)c(NC(=O)C/C(C)=N/NC(=O)CCc2ccccc2)c1
  A: . | B: 0.5% | C: -1.4% | D: 0.1%

O=C(COC(=O)COc1ccccc1)Nc1cccc([N+](=O)[O-])c1
  A: 12.9 | B: -5.9% | C: -1.1% | D: -3.0%

Cc1nc2ccc(S(=O)(=O)c3ccc4nc(C)[nH]c4c3)cc2[nH]1
  A: -1.2 | B: 13.4% | C: 0.1% | D: 0.2%

C[C@H](CO)N1C[C@H](C)[C@@H](CN(C)S(=O)(=O)c2ccccc2)Oc2ccc(NC(=O)C3CCCCC3)cc2C1=O
  A: . | B: 0.5% | C: . | D: -0.2%

CCCCCn1cnc2c(=S)nc(N)[nH]c21
  A: 8.3 | B: -0.1% | C: -1.0% | D: -0.2%

Carrying on.
Short forms: A = GLA inh pH 4.5; B = Rango release inh; C = miR-21 reporter; D = Rango-impB inh
O=CC1=C(c2ccccc2)Oc2ccccc2O1
  A: . | B: -2.1% | C: ? | D: 0.1%

COc1cccc(-c2nc(OC(C)C)c3ccccc3n2)c1
  A: 0.8 | B: 8.2% | C: -1.3% | D: 0.9%

CCc1ccc2nc(Nc3ncc(C(C)=O)c(C)n3)nc(C)c2c1
  A: 4.7 | B: 0.2% | C: -9.3% | D: -3.5%

c1ccc2c(c1)ncn2-c1ccc(-c2ccnc(-c3ccncc3)n2)cc1
  A: 6.2 | B: 6.7% | C: 1.1% | D: 0.7%

CCOc1ccc2nc(NC(=O)C(NS(=O)(=O)c3cccs3)C(C)C)sc2c1 (configuration not stated)
  A: -1.3 | B: -10.7% | C: 5.5% | D: -1.7%

Cc1cc(C(=O)CN2C(=O)NC(CC(C)C)C2=O)c(C)n1-c1ccccc1F (configuration not stated)
  A: -2.0 | B: -3.9% | C: -55.3% | D: -2.7%

Cc1ccc2c(N)c(C#N)sc2n1
  A: -14.5 | B: -15.2% | C: -23.3% | D: 0.1%

O=C(Nc1ccc(N2CCOCC2)cc1)C1CCCN(S(=O)(=O)c2ccccc2)C1 (configuration not stated)
  A: 2.5 | B: -2.6% | C: -14.2% | D: -0.4%

O=C(O)/C=C/C(=O)Nc1ccccc1C(=O)Nc1ccccc1
  A: 9.0 | B: 6.7% | C: -19.3% | D: 2.6%

Cc1nonc1NC(=O)CSc1ccccn1
  A: . | B: -0.6% | C: -2.5% | D: 0.7%

Seven entries out of the list, ordered by SMILES length, rising.
Short forms: A = GLA inh pH 4.5; B = Rango release inh; C = miR-21 reporter; D = Rango-impB inh
Cc1ccc2c(N)c(C#N)sc2n1
  A: -14.5 | B: -15.2% | C: -23.3% | D: 0.1%

COc1cccc(-c2nc(OC(C)C)c3ccccc3n2)c1
  A: 0.8 | B: 8.2% | C: -1.3% | D: 0.9%

O=C(O)/C=C/C(=O)Nc1ccccc1C(=O)Nc1ccccc1
  A: 9.0 | B: 6.7% | C: -19.3% | D: 2.6%

CCc1ccc2nc(Nc3ncc(C(C)=O)c(C)n3)nc(C)c2c1
  A: 4.7 | B: 0.2% | C: -9.3% | D: -3.5%

CCOc1ccc2nc(NC(=O)C(NS(=O)(=O)c3cccs3)C(C)C)sc2c1 (configuration not stated)
  A: -1.3 | B: -10.7% | C: 5.5% | D: -1.7%

Cc1cc(C(=O)CN2C(=O)NC(CC(C)C)C2=O)c(C)n1-c1ccccc1F (configuration not stated)
  A: -2.0 | B: -3.9% | C: -55.3% | D: -2.7%

O=C(Nc1ccc(N2CCOCC2)cc1)C1CCCN(S(=O)(=O)c2ccccc2)C1 (configuration not stated)
  A: 2.5 | B: -2.6% | C: -14.2% | D: -0.4%

Next part.
Short forms: A = GLA inh pH 4.5; B = Rango release inh; C = miR-21 reporter; D = Rango-impB inh
Cc1cc(=O)oc2ccc(OC(C)C(=O)O)cc12 (configuration not stated)
  A: 5.2 | B: 1.1% | C: ? | D: -1.7%

CC(=O)N(C)c1ccc(NC(=O)c2cnn(C)c2)cc1
  A: 5.4 | B: -14.8% | C: -3.8% | D: 0.4%

CC(NC(=O)c1cc(-c2ccccn2)nc2ccc(Cl)cc12)C1CCCO1 (configuration not stated)
  A: . | B: 1.1% | C: -0.7% | D: -4.5%

CC(C)NC(=O)N(C)C[C@H]1Oc2ccc(NC(=O)CCN3CCOCC3)cc2C(=O)N([C@H](C)CO)C[C@@H]1C
  A: . | B: 20.3% | C: . | D: -0.6%

Cc1oc(-c2ccc(Cl)cc2)nc1CS(=O)CC(=O)NCCCN1CC(C)CC(C)C1 (configuration not stated)
  A: . | B: -7.7% | C: 0.1% | D: 2.3%

CC(OC(=O)c1ccco1)C(=O)NC1CCCCC1 (configuration not stated)
  A: -2.3 | B: -8.6% | C: -4.0% | D: -0.4%

O=C(NC1CCCCCC1)C1CCN(S(=O)(=O)c2cnc[nH]2)CC1
  A: -0.1[21.1 µM] | B: 8.6% | C: -4.0% | D: -3.6%

COc1nc(N=C(N)N)nc2c(C)cccc12
  A: 3.2 | B: -8.5% | C: 3.6% | D: -4.4%

These rows are one share of the data; count on the stated rates, not on these rows.
